MT1-MMP act inh = inhibitors of human MT1-MMP activation. P50281. HT1080 RFP-PRO-GFP cells, GFP/RFP ratio fluorescence, overnight; percent of plate control window, DMSO zero. GFP/RFP ratio change, % at 20 µM. 360,000 tested, 0.061% active;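 active means GFP/RFP ratio change of at least 30% with cell ATP level not reduced by more than half and red fluorescence within 50% of control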; further: strong numbers were not always called active
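Assay system: HT1080 RFP-PRO-GFP cells. Benchmarks: DMSO vehicle wells and RFP-L50D-GFP reporter cell wells. Times: overnight cell settling, then overnight compound exposure, 37 °C, 5% CO2. Compound: 20 µM single dose, 1% DMSO. Read-out basis: GFP/RFP fluorescence ratio.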
eIF4H FP inh = inhibitors of RNA binding by human eIF4H | eIF4H fluorescence polarization binding assay | inhibition, % at 35 µM | 290,000 tested, 0.94% active | AID 2012;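 active means 50% or more with normal probe brightness, or confirmed in later tests; about a fifth of its hits are not listed in these tables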;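 further: calls also rest on retests at 20 µM and on dose response follow-up; 0% = protein and probe with vehicle and 100% = probe without protein; strong numbers were not always called active; many hits fall short of the cut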
HIV Env fusion = inhibitors of HIV Env-mediated cell fusion; HeLa-JRFL Env/CEM21 cell fusion, luciferase; inhibition, % at 12.3 µM; 360,000 tested, 1.1% active; AID 651610;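 active means mean replicate inhibition score of at least 50 and every replicate individually at or above 50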;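 further: 0% = plate neutral controls and 100% = maraviroc near 300 nM; one replicate is shown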
CSC inhib = cancer stem cell inhibition; inhibition, % at 7.5 µM; 300,000 tested, 1.1% active; cancer stem cell-like cells viability, luminescence;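 active means mean at 75% or more and at least half the replicates too; tested in HMLE shEcad cells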;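 further: 0% = median of negative and 100% = median of positive control wells; the first replicate is given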
Rce1 inhib = yeast Ras-converting enzyme inhibition | Q03530 | yeast membranes, quenched prenylated peptide cleavage fluorescence | calls only | 290,000 tested, 0.27% active | AID 2563;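 active means fall in fluorescence gain of 50% or more versus controls, with final raw signal at or below 3038400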;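 further: plate controls were neutral control wells for no effect and wells lacking membranes for full effect; tested at 10 µM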
Target sequence (Q03530 whole entry, looked up): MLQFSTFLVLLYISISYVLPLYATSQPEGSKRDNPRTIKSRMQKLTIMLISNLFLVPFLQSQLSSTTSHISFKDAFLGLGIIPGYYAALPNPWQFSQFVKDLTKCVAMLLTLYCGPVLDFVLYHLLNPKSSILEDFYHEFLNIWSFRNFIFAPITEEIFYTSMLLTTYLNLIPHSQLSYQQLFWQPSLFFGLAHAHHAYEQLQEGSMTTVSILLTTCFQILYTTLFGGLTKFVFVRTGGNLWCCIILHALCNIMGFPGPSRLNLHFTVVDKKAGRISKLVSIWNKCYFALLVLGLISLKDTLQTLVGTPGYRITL
PABP FP inh = PABP-poly(A) binding inhibition; P11940; PABP-poly(A) RNA binding, fluorescence polarization; inhibition, % at 35 µM; 290,000 tested, 1% active; AID 2014;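 active means 50% or more with normal probe brightness, or confirmed in later tests; about a fifth of its hits are not listed in these tables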;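 further: calls also rest on retests at 20 µM and on dose response follow-up; controls were probe without protein and protein plus probe with vehicle; some compounds called inactive have numbers as strong as hits; many hits fall short of the cut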
Yeast UUG start = yeast start codon fidelity modulation | activity score, % at 18.7 µM | S. cerevisiae UUG-firefly luciferase reporter, luminescence/redox ratio | 350,000 tested, 0.13% active;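 active means replicate mean at a twofold rise or more, about +100% in these data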;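 further: firefly luciferase made from a UUG start codon reports start codon fidelity; reporter light over untreated wells divided by growth signal over untreated wells; some hits fall short of that in this replicate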
MT1-MMP act inh RFP = second read-out of MT1-MMP act inh, no call of its own (marks repeat the call); RFP signal change, %; measured here: RFP expression control read;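 0 = vehicle wells; hits needed this value within 50% of zero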
An asterisk follows results filed as active.

Screening C=CCn1c(SCC(=O)NNC(=O)Nc2cccc(Cl)c2)nnc1-c1ccccc1 returned MT1-MMP act inh 1.5, eIF4H FP inh -4.6, HIV Env fusion -0.2, CSC inhib -1.6, Rce1 inhib inactive, PABP FP inh 1.5, Yeast UUG start -6.1 and MT1-MMP act inh RFP 1.3.
Screening O=C(c1cccs1)n1nc(-c2ccco2)nc1SCc1ccccc1 returned eIF4H FP inh -11.5, HIV Env fusion -22.0, CSC inhib -1.8, Rce1 inhib inactive and PABP FP inh -0.9.
`CCCCCOC(=O)Cn1c(N2CCOCC2)nc2c1c(=O)[nH]c(=O)n2C` gave MT1-MMP act inh -2.9, eIF4H FP inh -8.3, CSC inhib 0.9, Rce1 inhib inactive, PABP FP inh 10.0, Yeast UUG start -4.3 and MT1-MMP act inh RFP -5.1.
For CC(CN1CCC(O)CC1)c1ccccc1 (stereo not given) the results were MT1-MMP act inh 1.4, eIF4H FP inh 3.4, HIV Env fusion 9.6, CSC inhib -17.0, Rce1 inhib inactive, PABP FP inh 8.4, Yeast UUG start -8.8 and MT1-MMP act inh RFP 1.5.
For CC(C)(C)OC(=O)C[C@@H]1C/C=C\C[C@H](CC(=O)NCCO)C(=O)N2CCC[C@@H]2COC1=O the results were MT1-MMP act inh 1.9, HIV Env fusion -10.9, CSC inhib -8.2, Yeast UUG start 4.0 and MT1-MMP act inh RFP 7.3.
Screening COC(=O)c1c2c(nc3ccccc13)CCC2 returned MT1-MMP act inh -7.0, eIF4H FP inh 6.2, HIV Env fusion -75.4, CSC inhib -12.5, PABP FP inh 3.4, Yeast UUG start -17.0 and MT1-MMP act inh RFP -5.2.
NC(=O)c1ccc(NC(=O)COC(=O)c2cc(S(=O)(=O)N3CCOCC3)ccc2N2CCCCC2)cc1 was read as MT1-MMP act inh -0.7, eIF4H FP inh -3.3, HIV Env fusion -1.3, CSC inhib -7.5, Rce1 inhib inactive, PABP FP inh 2.6, Yeast UUG start -2.8 and MT1-MMP act inh RFP 0.1.
For O=C(c1ccc(Cl)c(S(=O)(=O)N2CCCC2)c1)N1CCN(c2ccc(F)cc2)CC1 the results were MT1-MMP act inh 0.8, eIF4H FP inh -6.9, HIV Env fusion 30.8, CSC inhib 0.6, Rce1 inhib inactive, PABP FP inh 1.9 and MT1-MMP act inh RFP -16.1.
`O=C(CSc1nc2[nH]ncc2c(=O)[nH]1)N1CCCC1` gave MT1-MMP act inh 3.0, eIF4H FP inh 2.3, Rce1 inhib inactive, PABP FP inh -3.9 and MT1-MMP act inh RFP 4.0.
CCCNC(=O)NNC(=O)c1ccc(F)cc1 was read as MT1-MMP act inh 2.5, eIF4H FP inh 4.0, HIV Env fusion -3.3, CSC inhib -10.8, Rce1 inhib inactive, PABP FP inh -1.0 and MT1-MMP act inh RFP -0.5.
Screening O=C(c1ccccc1Cl)N1N=C(c2ccc(Br)cc2)CC1c1nc2ccccc2[nH]1 (stereo not given) returned MT1-MMP act inh -8.9, eIF4H FP inh -9.2, HIV Env fusion -115.7, CSC inhib 16.4, Rce1 inhib inactive, PABP FP inh 7.9, Yeast UUG start -8.7 and MT1-MMP act inh RFP -21.0.
For COc1cc(O)c(C(CCN2CCCC2)c2ccc(N(C)C)cc2)c(OC)c1 (stereo not given) the results were MT1-MMP act inh 6.6, eIF4H FP inh 1.0, HIV Env fusion -70.6, CSC inhib 1.7, Rce1 inhib inactive, PABP FP inh -0.3, Yeast UUG start -12.5 and MT1-MMP act inh RFP 4.0.
Screening CC1CCC(NC(=O)c2nn(C)c(=O)c3ccccc23)CC1 (stereo not given) returned MT1-MMP act inh 1.4, HIV Env fusion 11.6, Yeast UUG start -17.6 and MT1-MMP act inh RFP 4.8.
COC(=O)c1sc(-c2ccc(Cl)cc2)cc1NC(=O)CSCC(=O)O was read as MT1-MMP act inh 13.9, eIF4H FP inh -5.6, HIV Env fusion 16.4, CSC inhib 9.9, Rce1 inhib inactive, PABP FP inh 4.6, Yeast UUG start 0.2 and MT1-MMP act inh RFP 0.1.
Clc1ccc(SCc2cc(Cl)nc(-c3ccccc3)n2)cc1 was read as MT1-MMP act inh 7.6, HIV Env fusion -16.2, CSC inhib -0.4, Rce1 inhib inactive, Yeast UUG start -1.5 and MT1-MMP act inh RFP 2.2.
Screening COc1cccc(CN2CCNC(=O)C2CC(=O)N2CCCCO2)c1OC (stereo not given) returned MT1-MMP act inh -1.4, eIF4H FP inh 3.8, HIV Env fusion 2.2, Rce1 inhib inactive, PABP FP inh 0.3 and MT1-MMP act inh RFP 0.9.
Nc1nc2ncc(-c3ccsc3)c(N)n2n1 was read as MT1-MMP act inh -0.1, eIF4H FP inh 0.1, HIV Env fusion -18.5, CSC inhib -7.2, Rce1 inhib inactive, PABP FP inh -0.5 and MT1-MMP act inh RFP 1.1.
COc1cccc(/C=N/NC(=O)C(=O)N2CCCCCC2)c1O was read as MT1-MMP act inh 2.2, eIF4H FP inh 6.0, HIV Env fusion 11.0, CSC inhib -5.7, PABP FP inh -15.1, Yeast UUG start -20.7 and MT1-MMP act inh RFP 1.4.
`CCOC(=O)C1=C(C)NC(C)=C(C(=O)OCC)C1C(=O)OCC(=O)N(CC)C1CCS(=O)(=O)C1` (stereo not given) gave MT1-MMP act inh 1.7, eIF4H FP inh -4.8, HIV Env fusion 0.0, CSC inhib -9.8, Rce1 inhib inactive, PABP FP inh -0.4, Yeast UUG start 6.0 and MT1-MMP act inh RFP -0.9.
`O=C(CCN1C(=O)C2C3CCC(C3)C2C1=O)Nc1ccccc1C(F)(F)F` (stereo not given) gave MT1-MMP act inh 3.2, eIF4H FP inh -6.2, HIV Env fusion -1.1, CSC inhib -12.2, Rce1 inhib inactive, PABP FP inh 2.0, Yeast UUG start -4.0 and MT1-MMP act inh RFP 5.9.
`Cn1ncc(C(=O)Nc2ccc(OC(F)(F)F)cc2)c1-n1cccc1` gave MT1-MMP act inh 10.3, eIF4H FP inh -6.1, HIV Env fusion 13.9, CSC inhib -2.4, Rce1 inhib inactive, PABP FP inh -12.0, Yeast UUG start -14.1 and MT1-MMP act inh RFP -1.7.
Screening Cc1cc(C(F)(F)F)c(C#N)c(SCC(=O)NC(C)(C)C)n1 returned MT1-MMP act inh -1.4, eIF4H FP inh 10.8, HIV Env fusion -13.0, CSC inhib -16.1, Rce1 inhib inactive, PABP FP inh -9.3, Yeast UUG start -3.2 and MT1-MMP act inh RFP -3.8.
For O=S(=O)(c1ccc(Oc2ccc(S(=O)(=O)N3CCOCC3)cc2)cc1)N1CCOCC1 the results were MT1-MMP act inh 0.4, eIF4H FP inh 0.3, CSC inhib 5.4, Rce1 inhib inactive, PABP FP inh -6.4, Yeast UUG start -7.3 and MT1-MMP act inh RFP -15.0.
`NC(=O)c1ccsc1NC(=O)CSc1nc2ccccc2c(=O)n1CCCO` gave MT1-MMP act inh -0.6, eIF4H FP inh 1.4, CSC inhib -4.7, Rce1 inhib inactive, PABP FP inh 7.9, Yeast UUG start -12.9 and MT1-MMP act inh RFP -3.9.
`Cc1ccc(NS(=O)(=O)c2cccc(C(=O)NCC(c3cccs3)N3CCOCC3)c2)cc1` (stereo not given) gave MT1-MMP act inh -4.7, HIV Env fusion 4.8, CSC inhib -2.3, Yeast UUG start -4.3 and MT1-MMP act inh RFP -6.4.
For CC(=O)Nc1ccc(CN2CCCCCCC2)cc1 the results were MT1-MMP act inh -0.4, eIF4H FP inh -0.2, HIV Env fusion 45.0, CSC inhib -17.1, Rce1 inhib inactive, PABP FP inh 5.8 and MT1-MMP act inh RFP -0.4.
OCCC1CN(Cc2ccc(Oc3ncccn3)cc2)CCN1C1CCCCC1 (stereo not given) was read as MT1-MMP act inh -2.7, eIF4H FP inh -8.8, HIV Env fusion -4.0, CSC inhib -2.8, Rce1 inhib inactive, PABP FP inh 3.9 and MT1-MMP act inh RFP -5.5.
For COc1ccc(CCC(=O)NC2CCCc3ccccc32)cc1OC (stereo not given) the results were MT1-MMP act inh 1.7, eIF4H FP inh 3.3, HIV Env fusion 1.9, CSC inhib -9.7, Rce1 inhib inactive, PABP FP inh 19.5, Yeast UUG start -8.4 and MT1-MMP act inh RFP 4.4.
CC(OC(=O)c1ccc(Cl)c(S(=O)(=O)N2CCOCC2)c1)C(=O)NC1CCCCC1C (stereo not given) was read as MT1-MMP act inh 7.6, eIF4H FP inh 4.7, HIV Env fusion -6.0, CSC inhib 17.9, Rce1 inhib inactive, PABP FP inh 9.2, Yeast UUG start 4.7 and MT1-MMP act inh RFP 2.5.
For Cc1ccc(/C(O)=C2/C(=O)C(=O)N(CCCn3ccnc3)C2c2ccccn2)cc1 (stereo not given) the results were eIF4H FP inh 0.1, Rce1 inhib inactive and PABP FP inh -6.6.
`C/C=C/Cn1c(Br)nc2c1c(=O)[nH]c(=O)n2C` gave MT1-MMP act inh -4.3, eIF4H FP inh -6.9, Rce1 inhib inactive, PABP FP inh -4.9, Yeast UUG start -13.3 and MT1-MMP act inh RFP 0.2.
Cc1cc(C)nc(N2CCCC(C(=O)Nc3ccc4c(c3)OCCO4)C2)n1 (stereo not given) was read as MT1-MMP act inh -4.5, eIF4H FP inh -0.4, HIV Env fusion 4.6, CSC inhib -22.1, Rce1 inhib inactive, PABP FP inh -4.8, Yeast UUG start -7.5 and MT1-MMP act inh RFP 1.2.
`COc1cc(NC(=O)c2sc(C)nc2C)c(OC)cc1NC(=O)c1ccccc1` gave MT1-MMP act inh 2.1, eIF4H FP inh -15.9, HIV Env fusion 4.5, CSC inhib -5.0, Rce1 inhib inactive, PABP FP inh -1.1, Yeast UUG start -2.9 and MT1-MMP act inh RFP -1.1.
Screening Cn1cc(CN(CCCN2CCOCC2)C(=S)Nc2cccc(Cl)c2)c2ccccc21 returned MT1-MMP act inh -4.7, eIF4H FP inh -4.0, CSC inhib 8.6, Rce1 inhib inactive, PABP FP inh 10.5, Yeast UUG start -17.9 and MT1-MMP act inh RFP -2.0.
Screening CCC(C)[C@H](NC(=O)Nc1ccc2c(c1)OCCO2)C(=O)OC (stereo not given in full) returned MT1-MMP act inh 2.4, eIF4H FP inh -5.1, HIV Env fusion -2.8, CSC inhib -9.8, Rce1 inhib inactive, PABP FP inh 9.2 and MT1-MMP act inh RFP 2.4.
O=C(CS(=O)(=O)c1cn(CC(=O)N2CCOCC2)c2ccccc12)Nc1ccccc1 was read as MT1-MMP act inh -1.9, eIF4H FP inh -7.6, HIV Env fusion -70.1, CSC inhib 14.6, Rce1 inhib inactive, PABP FP inh -5.5 and MT1-MMP act inh RFP 3.7.
For COCCNC(=O)C1(S(=O)(=O)c2ccccc2)CC=CC1 the results were MT1-MMP act inh 0.5, eIF4H FP inh -9.4, HIV Env fusion -23.5, CSC inhib -5.1, Rce1 inhib inactive, PABP FP inh -4.7, Yeast UUG start -18.5 and MT1-MMP act inh RFP 1.3.
Screening COc1ccc(-n2c(C)cc(C(=O)COC(=O)c3cc(OC)c(OC)cc3NC(=O)c3cccs3)c2C)cc1 returned MT1-MMP act inh 1.1, eIF4H FP inh -3.0, HIV Env fusion -7.8, CSC inhib -0.6, PABP FP inh -4.4 and MT1-MMP act inh RFP -3.0.
`Cc1ccccc1Oc1cc(NC(=O)CCCn2nc(C)c([N+](=O)[O-])c2C)cc([N+](=O)[O-])c1` gave MT1-MMP act inh -0.9, eIF4H FP inh -4.5, HIV Env fusion 33.3, CSC inhib 25.6, Rce1 inhib inactive, PABP FP inh 5.2 and MT1-MMP act inh RFP -6.4.

Filtered by structure, the entries above with a tert-butyl group
For CC(C)(C)OC(=O)C[C@@H]1C/C=C\C[C@H](CC(=O)NCCO)C(=O)N2CCC[C@@H]2COC1=O the results were MT1-MMP act inh 1.9, HIV Env fusion -10.9, CSC inhib -8.2, Yeast UUG start 4.0 and MT1-MMP act inh RFP 7.3.
Screening Cc1cc(C(F)(F)F)c(C#N)c(SCC(=O)NC(C)(C)C)n1 returned MT1-MMP act inh -1.4, eIF4H FP inh 10.8, HIV Env fusion -13.0, CSC inhib -16.1, Rce1 inhib inactive, PABP FP inh -9.3, Yeast UUG start -3.2 and MT1-MMP act inh RFP -3.8.
